High-throughput results deposited in PubChem BioAssay by National Center for Advancing Translational Sciences (NCATS).
StopGo reporter – High Throughput Screening for Foot and Mouth Disease Virus Antivirals | human cells with a luciferase reporter of 2A StopGo recoding; control for the full effect not named in the record | Potency, µM (titrated, usually from 57.9 µM), for inactives: at the top dose signal change, negative = less light | AID 1159524, 2015 | 1.2% of 410,000 active; active = well fitted falling curve with a large enough effect; inconclusive = small, poorly fitted or top-dose-only effect; inactive = no such curve, though single readings can be large or run the other way; tested in HEK293T cells; note: nearly all actives have a fitted effect of over 45% in size; luciferase light after 4 h
RE007 growth inh – qHTS Assay for Inhibitors of the HIV-1 protein Vpr. S. pombe RE007 Vpr strain, BacTiter-Glo ATP luminescence, 24 h; control for the full effect not named in the record. Potency, µM (doses to about 92.2 µM), for inactives: at the top dose activity change, negative = less growth. 0.21% of 360,000 active. AID 651644, 2012; active = well fitted falling curve with a large enough effect; inconclusive = small, poorly fitted or top-dose-only effect; inactive = no such curve, though single readings can be large or run the other way;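 note: nearly all actives have a fitted effect of over 50% in size; the assay follows cell death caused by Vpr and the record does not say whether a fall means rescue or toxicity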
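Fission yeast RE007 carrying one integrated HIV-1 vpr copy, seeded at OD 0.01 in PMG+AL medium with 23 nL pinned compound. Grown 24 h at 30 degrees; viability read by BacTiter-Glo luminescence after 5 min.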
* = called active by the depositor; ? = inconclusive; [ ] = dose if it differs, or a comment. % is set by controls: 0 for no effect and ±100 for the full control effect; potency is the fitted concentration of half-maximal effect. This is a subset; rates above refer to the full screens.

The line under a structure holds: StopGo reporter | RE007 growth inh
> COc1cccc(CNc2nc3cc(-c4ccccc4C)sc3c(=O)n2C)c1OC
    -29% | -2%
> CC1(C(=O)NS(=O)(=O)c2ccccc2C(F)(F)F)CCN1C(=O)CCc1ccccc1 (stereo not given)
    9% | -1%[18.4 µM]
> COc1ccccc1-c1cnc(C(O)c2ccc(Cl)c(F)c2)[nH]1 (stereo not given)
    -3% | 2%
> C[C@H](O)[C@@H]1CN2CCc3c([nH]c4ccccc34)[C@@H]2C[C@@H]1N(C)C(=O)Nc1cc(Cl)cc(Cl)c1
    0% | -6%
> CN1CCN(C2CN(Cc3cn(Cc4ccccc4)nn3)S(=O)(=O)C2)CC1 (stereo not given)
    ? | 2%
> NNc1ccc([N+](=O)[O-])c2[nH][nH]c(=O)c12
    -20% | -21%
> COc1cc(N)c2ncccc2c1SC
    -11% | -4%
> C[C@@H]1CN[C@@H](CCO)/C1=C\c1ccccc1
    -13% | -10%
> Cn1cc(-c2csc(C(O)c3ccccc3)n2)cn1 (stereo not given)
    5% | 3%[18.4 µM]
> COc1ccc(-c2csc(C(C)(O)c3ccccc3)n2)cc1OC (stereo not given)
    -5% | -1%[18.4 µM]
> COc1ccccc1Cc1c(-c2cccc(Cl)c2)nc2ccc(Cl)cn12
    3% | -11%
> O=C(Oc1ccc[nH]c1=O)c1ccccc1
    -6% | -9%
> O=S(=O)(NC(CO)Cc1ccccc1)c1cc(Cl)ccc1F (stereo not given)
    -2% | -1%
> COc1ccc(Br)c(Cn2c(C)c(C(=O)NCc3ccccc3C(F)(F)F)sc2=O)c1
    -16% | -4%[18.4 µM]
> CCCCC(=O)N(C)c1c(CC)nc2c(OCc3ccc(C#N)cc3)cccn12
    -27% | -11%[18.4 µM]
> CCOc1ccc(Oc2ccc(NS(=O)(=O)c3ccc(CCC(=O)O)cc3)cc2)cc1
    -3% | 7%
> CNS(=O)(=O)c1ccc(CNC[C@H]2O[C@@H](n3cnc4c(=O)[nH]c(N)nc43)[C@H](O)[C@@H]2O)cc1
    -15% | 8%
> CCCCC(c1nc2ccccc2[nH]1)n1c(-c2ccccc2)nc2ccccc21 (stereo not given)
    -3% | 1%
> CC(C)N1CCN(C(=O)c2ccc([N+](=O)[O-])cc2)CC1
    -2% | 12%
> CN(C)CCNC(=O)c1c(CSc2ccc(Cl)cc2)noc1C(=O)NCc1ccccc1
    0% | -24%
> Cc1c(-c2ccccc2)n(O)[n+]([O-])c1-c1ccccc1
    16% | -6%
> CCOC(=O)C1(C)CCN1C(=O)c1cccc(C(F)(F)F)c1 (stereo not given)
    -8% | 3%
> COc1ccccc1Cc1c(-c2ccc(Cl)cc2)nc2ccc(Br)cn12
    24% | -7%
> Cc1cccc(C)c1Nc1n[nH]c(=S)s1
    -28% | 0%
> CCCCCNC(=O)C(C1CC1)n1c(=O)c(-c2ccco2)nc2ccccc21 (stereo not given)
    -9% | -4%
> O=C([C@H]1O[C@@H](n2ccc(=O)[nH]c2=O)[C@H](O)[C@@H]1O)N1CCC(F)(F)CC1
    -14% | 2%
> CC1=CC2=C(C=O)C(=O)C(C)(O)C(O)C2=CO1 (stereo not given)
    -23% | 3%
> Cc1ccc(N2CCN(C(=O)C(=O)c3cccc(Br)c3)CC2)cc1
    -3% | -5%
> O=C(NCc1ccc(C(F)(F)F)cc1)c1ccc(-c2cccnc2)c2ccoc12
    21% | ?
> C[C@@H]1CN([C@H](C)CO)C(=O)c2cc(Br)cnc2O[C@@H]1CN(C)C(=O)c1ccccc1
    -18% | -12%
> O=C(Cn1cnc([N+](=O)[O-])c1)Nc1ccc(Cl)cc1Cl
    0% | 18%
> CC(=O)Nc1ccc(NC(=O)C2Cc3c(-c4ccc(Cl)cc4)ccnc3O2)cc1 (stereo not given)
    -17% | 6%
> COc1ccc(CNC(=O)c2sc(=O)n(Cc3ccccc3C)c2C)cc1
    -14% | 20%[18.4 µM]
> C[C@H]1CN([C@@H](C)CO)C(=O)CCCn2nncc2CO[C@H]1CN(C)C(=O)c1cc(-c2ccccc2)on1
    -1% | -22%
> Cc1nn(CC(=O)NC2CCCCC2)c(C)c1[N+](=O)[O-]
    0% | 6%
> CN(C)C(=O)N1CCc2ccc([N+](=O)[O-])cc21
    0% | -14%
> C[C@H](CO)NC(=O)c1nc[nH]c1C(=O)N[C@@H](C)c1ccccc1
    3% | 6%
> O=C(NNC(=O)c1cccs1)c1ccccn1
    30%[activator] | 0%
> CC(C)(C)[C@H]1C=C(C(=O)O)O[C@@H](OCCCCO)C1
    -13% | 13%
> COc1cc(CNc2ncnc3c2ncn3[C@H]2CN(Cc3cccs3)C[C@@H](CO)O2)cc(OC)c1OC
    -15% | 0%
> CCCCn1nnnc1C(c1cc2ccccc2o1)N1CCN(C/C=C/c2ccccc2)CC1 (stereo not given)
    -1% | -26%
> COC(=O)C1=C(c2ccc(S(C)(=O)=O)cc2)C[C@@H]2CC[C@H]1N2C(=O)NCCO
    -11% | 2%
> CC1(C(=O)NCCC#N)CCN1C(=O)Cc1ccc(-c2ccccc2)cc1 (stereo not given)
    -24% | -2%[18.4 µM]
> O=C(OCc1cn([C@H]2C[C@H](c3ccccc3)N(C(=O)c3cccs3)C[C@@H]2O)nn1)c1ccccc1
    -16% | 6%
> CCOC(=O)C[C@@H]1OC[C@H](C(C)C)N1S(=O)(=O)c1ccc(C)cc1
    -22% | -7%
> C[C@H](O)[C@@H]1C(=O)N2CCc3ccc(-c4ccccc4)cc3[C@@H]2C[C@@H]1N(C)C(=O)c1cccnc1
    -23% | 0%
> COc1ccc(-n2c(=O)c3c4c(sc3n(CC(=O)NCC3CCCO3)c2=O)CN(C(C)=O)CC4)cc1OC (stereo not given)
    -5% | -3%
> O=C(NCNC(=O)NC1C(=O)NC(=O)N1CO)NC1C(=O)NC(=O)N1CO (stereo not given)
    -15% | -6%[18.4 µM]
> COC(=O)C1=CN(c2ccc(OC)cc2OC)C(N)=C(C#N)C1c1ccccc1F (stereo not given)
    1% | -11%
> O=C(CNC(=O)c1cccc(-n2cccc2)c1)Nc1ccccc1Br
    0% | -16%

More records.
The line under a structure holds: StopGo reporter | RE007 growth inh
> CC1(c2nnnn2Cc2ccccc2)CCC(=O)N1CCc1ccccc1F (stereo not given)
    -5% | 19%
> COc1ccc(CN2C(=O)CSCC2(C)C(=O)Nc2c(C)cccc2C)cc1OC (stereo not given)
    -8% | 0%
> COc1ccc(CN2C(=O)CCCC2(C)c2nc3ccccc3[nH]2)cc1 (stereo not given)
    -25% | -15%
> CCCCCNC(=O)C(c1ccncc1)n1c(=O)c(-c2ccccc2)nc2ccccc21 (stereo not given)
    4% | 1%
> CCN(CC)CCN1CCN(c2cnc(C)cn2)CC1
    -28% | -7%
> O=C(COc1cccc(F)c1)Nc1nc(-c2ccccn2)cs1
    ? | ?
> N#Cc1ccc(S(=O)(=O)N2CCCCC2c2cc(C(=O)Nc3cccc4c3CCCC4)no2)cc1 (stereo not given)
    -10% | 3%
> O=C(COC(=O)CSc1ccc(F)cc1)NC1CC1
    6% | -13%
> COc1ccc(-c2ccc3c(c2)c(Sc2ccccc2)c(-c2cc(OC)cc(OC)c2)n3C)cc1
    -27% | -4%
> Cc1c(C(=O)NCc2ccc(Cl)c(Cl)c2)sc(=O)n1Cc1ccc(C(=O)N(C)C)cc1
    ? | 6%[18.4 µM]
> COc1cc(Cc2nc3ccccc3n2C(C)c2nc3ccccc3[nH]2)cc(OC)c1 (stereo not given)
    -14% | -13%
> CCOC(=O)N(C)C[C@@H]1OCc2ccccc2-c2c(n(C)c3ccccc23)C(=O)N([C@H](C)CO)C[C@H]1C
    -15% | -5%
> CCCCN1C(=O)C(CC(=O)NCCc2ccccn2)CC(C(=O)N2CCOCC2)=C1C (stereo not given)
    -18% | 2%
> COC(=O)c1ccc2nc(-c3cccc(Cl)c3)c(CC3CCCCC3)n2c1
    -10% | 1%
> C=CCC[C@H](CCCCC)OC(=O)/C=C/[C@@H](O)[C@H](O)C[C@@H](O)CC=C
    ? | -16%
> Cc1ccc(S(=O)(=O)N2C[C@H]3[C@H]4C(=O)N(Cc5ccccc5)C(=O)[C@H]4CC(=O)[C@H]3[C@@H]2c2ccccc2Cl)cc1
    -10% | 9%
> CCc1nc2ccc(C(=O)NC3CCN(Cc4ccccc4)CC3)cn2c1N(C)Cc1ccc(N(C)C)cc1
    -11% | ?
> Cc1ccc(S(=O)(=O)N2CCN(C(=O)COC(=O)Cc3c(F)cccc3Cl)CC2)c(C)c1
    ? | 2%
> CC1(C)CC(=O)C=C(c2ccc(COC(=O)/C=C/c3ccccc3)cc2)C1=O
    -26% | -16%
> Cc1ccccc1-n1c(SCC(=O)NC2CC2)nc2ccccc2c1=O
    -26% | -7%
> COc1ccc(NC(=O)C2(C)CCN2Cc2cccc(OC)c2OC)cc1OC (stereo not given)
    ? | 5%[18.4 µM]
> CCNC(=O)C1(C)CCCN(C(=O)c2cc(-c3ccccc3)cs2)C1 (stereo not given)
    13% | -3%[18.4 µM]
> Cc1ccc(C)c(NC(=O)CN(C)C(=O)c2ccc(COc3ccccc3)cc2)c1
    -23% | -7%
> Cn1nccc1-c1coc2c(C(=O)N3CCOCC3)cccc12
    -13% | -5%
> O=C(C1CCCCC1)N1CCC2CC1c1cc(-c3ccc4c(c3)OCO4)ccc12 (stereo not given)
    -20% | 3%
> CN1C(=O)[C@H]2[C@@H](c3ccc(C(F)(F)F)cc3)N[C@]3(CCCN(Cc4ccco4)C3=O)[C@H]2C1=O
    -22% | 14%
> CC(=O)NC(c1ccccc1)c1nc(-c2ccc3ccccc3c2)cs1 (stereo not given)
    -1% | 3%
> COc1ccc(S(=O)(=O)N2c3ccc(F)cc3CCC2C)cc1 (stereo not given)
    -26% | 13%
> CCOc1ccc(CCNC(=O)COC(=O)c2[nH]c(C)c(C(C)=O)c2C)cc1OCC
    -1% | 5%
> COc1ccccc1-c1cc2nc(NCc3cccc(Cl)c3)ccn2n1
    0% | -17%
> O=S1(=O)CCOC[C@H](Cc2ccccc2)N1Cc1ccccc1
    36%[activator] | -10%
> CC(C)C(N)c1csc(Nc2cc(Oc3ccccc3)ncn2)n1 (stereo not given)
    -13% | -5%
> CCOc1ccc(CCN2C(=S)N([C@@H](CC(C)C)CN3CCC[C@@H]3CN3C(=S)NC[C@@H]3CC(C)C)C[C@@H]2Cc2ccc(O)cc2)cc1
    -22% | 3%
> Clc1nc2ccccc2cc1-c1nnn(-c2ccccc2Br)n1
    57%[activator] | -10%
> O=C(NC(c1ccc(-c2ccccc2)cc1)c1cnccn1)C1CCN(CCCOc2ccccc2)CC1 (stereo not given)
    -6% | -7%
> COc1ccc(CNC(=O)[C@@H]2CC=C[C@@H]3CCN(Cc4ccc(Cl)c(Cl)c4)C(=O)[C@@H]32)cc1
    -18% | -1%
> CC(C)N(C)c1ncnc2c1ncn2[C@H]1CN(Cc2ccc3c(c2)OCO3)C[C@@H](CO)O1
    -22% | 12%
> CNC[C@H]1OCc2ccccc2-c2ccccc2C(=O)N([C@H](C)CO)C[C@H]1C
    -20% | 7%
> CCCCc1ccc(-c2nn[nH]n2)nc1
    0% | 1%
> CC(=O)Nc1cccc(-c2ccnc3c2CC(C)(C(=O)NCCC(F)(F)F)O3)c1 (stereo not given)
    14% | -2%[18.4 µM]

4 structures from above, arranged by heavy-atom count, largest number first:
The line under a structure holds: StopGo reporter | RE007 growth inh
> O=C(NC(c1ccc(-c2ccccc2)cc1)c1cnccn1)C1CCN(CCCOc2ccccc2)CC1 (stereo not given)
    -6% | -7%
> COc1ccc(CNC(=O)[C@@H]2CC=C[C@@H]3CCN(Cc4ccc(Cl)c(Cl)c4)C(=O)[C@@H]32)cc1
    -18% | -1%
> CC(=O)Nc1cccc(-c2ccnc3c2CC(C)(C(=O)NCCC(F)(F)F)O3)c1 (stereo not given)
    14% | -2%[18.4 µM]
> CNC[C@H]1OCc2ccccc2-c2ccccc2C(=O)N([C@H](C)CO)C[C@H]1C
    -20% | 7%

Remaining list, next part:
The line under a structure holds: StopGo reporter | RE007 growth inh
> CN(C(=O)c1cccc(NC(=O)Cc2ccc(NC(=O)C3CCN(C(=O)c4ccccc4)CC3)cc2)c1)C1CCC1
    -9% | -8%
> COc1ccc(OC)c(NC(=O)Nc2nnc([C@H]3C[C@H](O)[C@@H](CO)O3)s2)c1
    -2% | -2%
> Cc1ccccc1CN1C(=O)CN(S(C)(=O)=O)CC1(C)C(=O)NCc1ccccc1 (stereo not given)
    -26% | -4%
> CC(=O)NC(c1cccc(F)c1)c1nc(-c2csc3ccccc23)cs1 (stereo not given)
    2% | -3%
> O=C(NCCc1nc(-c2ccccc2Cl)no1)c1ccccc1
    -10% | 2%
> CSCCC(C(=O)Nc1c(C)cccc1C)N(Cc1ccccc1)Cc1ccccc1 (stereo not given)
    ? | 3%
> CC1(C(=O)Nc2ccccc2)CCN1C(=O)C1(c2ccc(Cl)cc2)CC1 (stereo not given)
    -19% | 3%
> COC(=O)[C@@H]1C[C@@]2(Br)c3ccccc3N(S(=O)(=O)c3ccccc3)[C@H]2N1C(=O)OC
    4% | 0%
> Cc1cn([C@H]2C[C@H](O)[C@@H](CNCc3cccc(OC4CCCC4)c3)O2)c(=O)[nH]c1=O
    ? | 2%

A second format for some results above.
mol | StopGo reporter | RE007 growth inh
COc1cc(CNc2ncnc3c2ncn3[C@H]2CN(Cc3cccs3)C[C@@H](CO)O2)cc(OC)c1OC | -15% | 0%
CCCCn1nnnc1C(c1cc2ccccc2o1)N1CCN(C/C=C/c2ccccc2)CC1 (stereo not given) | -1% | -26%
